# Screening data (PubChem BioAssay)
# UCH37 inh = inhibitors of human deubiquitinating enzyme UCH37 | AID 588478 | purified proteasome/UCH37, Ub-AMC cleavage fluorescence | Q9Y5K5 | inhibition, % (test concentration not listed) | 330,000 compounds, 0.33% hits;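 active = mean of two replicates above 20%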;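 note: 0% = compound-free wells with enzyme and 100% = wells lacking proteasome; stock transfer was 100 nL into about 20 µL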
#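 System: Proteasome-associated human UCH37 deubiquitinase; Input: 0.15 nM proteasome in added enzyme buffer; Also added: Ub-AMC substrate from 1 µM stock; Incubation: 30 min compound-proteasome preincubation then 25 min substrate reaction, room temperature; Detection: fluorescence, ex 355 nm, em 460 nm; Read-out: % inhibition of Ub-AMC cleavage fluorescence; Benchmarks: no-proteasome and no-compound wells.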
# A1 inh = inhibitors of the anti-apoptotic protein A1, read as caspase activation; MEF A1-2A-BIM cells, Caspase-Glo 3/7 luminescence, 3 h; percent of clofoctol response, vehicle zero; caspase activation, % (no concentration beside the values); 330,000 compounds, 0.066% hits;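 active = over half of replicate activation scores above 10%, or exactly half above 10 with the replicate mean above 10; inconclusive = replicate mean below 10 yet half the replicates above 10; inactive = over half of replicates below 10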;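 note: wells of about 30 µL received 50 nL stock; many hits fall short of the cut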
# LANA-H2A inh = blocks KSHV LANA binding to histone H2A/H2B | 320,000 compounds, 0.6% hits | AID 2629 | Q9QR71 | inhibition, % (concentration not given with the values) | cell-free LANA-H2A/H2B peptide, fluorescence polarization; in the data active = inhibition mostly above about 10%, no sharp cut-off; inactive = mostly below about 6.7%;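 note: stock transfer was 7.5 nL into about 10 µL; 0% = median of vehicle wells and 100% = median of positive control wells; one replicate is shown; the record names a cut of 25% in any replicate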
# Target sequence (Q9QR71 whole entry, looked up): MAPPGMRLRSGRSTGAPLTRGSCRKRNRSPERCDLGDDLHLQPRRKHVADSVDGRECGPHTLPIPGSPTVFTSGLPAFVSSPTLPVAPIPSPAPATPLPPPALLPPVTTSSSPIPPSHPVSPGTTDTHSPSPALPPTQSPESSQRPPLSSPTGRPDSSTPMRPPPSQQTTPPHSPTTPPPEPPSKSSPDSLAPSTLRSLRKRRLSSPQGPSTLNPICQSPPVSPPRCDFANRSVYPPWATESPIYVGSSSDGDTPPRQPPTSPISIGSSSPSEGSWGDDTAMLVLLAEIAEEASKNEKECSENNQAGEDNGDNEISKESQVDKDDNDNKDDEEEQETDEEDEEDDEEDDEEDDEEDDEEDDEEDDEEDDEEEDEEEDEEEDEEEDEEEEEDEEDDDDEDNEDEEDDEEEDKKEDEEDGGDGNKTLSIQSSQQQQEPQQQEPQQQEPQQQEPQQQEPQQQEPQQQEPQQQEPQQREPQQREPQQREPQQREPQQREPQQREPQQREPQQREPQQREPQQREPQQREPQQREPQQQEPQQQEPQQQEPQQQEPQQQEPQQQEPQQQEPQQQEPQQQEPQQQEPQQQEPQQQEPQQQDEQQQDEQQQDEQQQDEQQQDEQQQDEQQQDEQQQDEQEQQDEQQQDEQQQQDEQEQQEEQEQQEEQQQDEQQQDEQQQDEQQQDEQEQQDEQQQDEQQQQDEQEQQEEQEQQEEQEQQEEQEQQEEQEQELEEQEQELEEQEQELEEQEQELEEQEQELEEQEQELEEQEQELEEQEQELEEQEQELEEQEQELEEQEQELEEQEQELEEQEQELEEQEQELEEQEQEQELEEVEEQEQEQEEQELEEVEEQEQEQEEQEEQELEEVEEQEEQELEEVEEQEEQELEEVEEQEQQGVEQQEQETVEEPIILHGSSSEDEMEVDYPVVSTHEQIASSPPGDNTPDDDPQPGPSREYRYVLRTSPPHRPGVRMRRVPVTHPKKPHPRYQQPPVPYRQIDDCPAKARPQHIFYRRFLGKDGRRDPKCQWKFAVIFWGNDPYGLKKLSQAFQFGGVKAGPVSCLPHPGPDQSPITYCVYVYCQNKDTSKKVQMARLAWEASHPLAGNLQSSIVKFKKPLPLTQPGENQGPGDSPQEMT
# B2AR ag = human beta-2 adrenergic receptor agonism by FAP; AID 504454; 340,000 compounds, 0.43% hits; P07550; Am2.2-beta2AR cells, FAP receptor internalization, flow cytometry; reference of the scale not given here; response, % (test concentration not listed);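 active = response above a set limit, near 3 SD of response in nonfluorescent compounds, cut at about 42% in these data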;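 note: stock transfer was 100 nL into about 11 µL; a reference agonist was the positive control; negative values mostly stem from fluorescent compounds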
# Vif A3G = inhibitors of Vif binding to APOBEC3G peptide, primary screen, biochemical, TR-FRET, GST-Vif 1-94, biotin-A3G peptide, dose response retest (AID 1117319). inhibition, %, or IC50 in µM where a hit was titrated. 260,000 compounds, 0.57% hits. TR-FRET GST-Vif / biotin-A3G peptide binding; higher % means a stronger effect; test concentration not given here; strong numbers were not always called active;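 active = above the screen mean plus three standard deviations and confirmed in dose response; inconclusive = results disagree or hit not tested in dose response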;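 note: Vif residues 1-94 fused to GST binding biotinylated APOBEC3G peptide 110-148; 0% = full assay without inhibitor and 100% = GST in place of GST-Vif; retest series ran down from 100 µM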
# Ecoli growth = blocks Escherichia coli growth; OD600, 23 h; stronger effect = lower value; OD600 absorbance (test concentration not listed); 330,000 compounds, 0.21% hits;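 active = OD600 absorbance below the run mean of sample wells minus 3.6 SD, in any replicate, cut at about 0.56 in these data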;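 note: stock transfer was 300 nL into about 60 µL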
# HNF4A DNA FP = change in binding of human HNF4 alpha to DNA; 360,000 compounds, 0.3% hits; AID 1224865; activity change, % at 10 µM; HNF4a-FITC DNA binding, fluorescence polarization, 1 h; in the data active = activity change above about 30%, passing the limit was not always enough;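 note: controls were the assay level and a saturating level of protein; the project sought stronger binding though the title names inhibitors; some compounds called inactive have numbers as strong as hits; positive values seem to mean higher polarization but the record does not say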
# * marks the source's active call; other numbers are inactive results; ? = inconclusive; . = not tested or not shown; & = joins results of further samples. Not a hit list; 2.1% or so of the library scored in one or more.
SMILES,UCH37 inh,A1 inh,LANA-H2A inh,B2AR ag,Vif A3G,Ecoli growth,HNF4A DNA FP
O=C(Nc1ccc(-c2cn3ccsc3n2)cc1)C1CCCC1,0.7,-11,2.7,5,-5%,0.69,3.9
Cn1cccc1Cc1nnc(SCC(=O)NC2CCCCC2)n1CCc1ccccc1,4.6,-0.2,-6.5,5,16%,0.7,3.6
Cc1ccc(-n2c(C)cc(C(=O)CSc3nncs3)c2C)cc1,0.9,-0.9,0.9,4,?,0.65,13
COc1ccc(C(=O)Cc2ccc(OC)c(OC)c2)c(OC)c1,-0.6,0.0,3.5,3,-1%,0.7,2.5
CCC(C)NC(=O)CSc1nnc(-c2cc(-c3ccc(C)cc3)nc3ccccc23)n1N (stereo unspecified),-32,0.5,-3.3,0,-1%&0%,0.81,5.1
Cc1cccc(CN2CCN(Cc3ccc4nonc4c3)CC2CCO)n1 (stereo unspecified),-0.4,-0.4,3.2,-7,.,0.69,2.6
COc1ccc(N(CC(=O)NCc2ccccc2)C(=O)CCC(=O)Nc2cc(C)ccn2)c(OC)c1,-0.9,-0.3,-5.6,-8,?,0.7,3.7
COC(=O)/C=C1\S/C(=N/N=C/c2ccco2)NC1=O,.,0.7,1.2,0,.,.,-0.6
CNC(=S)NCc1ccc2[nH]c3c(c2c1)CCCC3,3.7,0.4,3.1,3,2%,0.71,2.8
Cc1cc(C(=O)Cn2cnc3cc(F)ccc3c2=O)c(C)n1C1CC1,0.0,-0.3,1.1,-4,-7%,0.72,2.5
Cc1ccc(C(C(=O)NC2CCCCC2)N(Cc2cccnc2)C(=O)c2csnn2)cc1 (stereo unspecified),-3.2,0.6,3.3,4,.,0.65,0.4
CN(C)C(=O)c1ccc(-c2cc(C(F)(F)F)n(C)n2)s1,5.1,0.4,5.5,-2,.,0.65,0.2
COc1ccc(Nc2ncc(C#N)c(N)n2)c(OC)c1,5.5,0.3,4.9,-1,-8%,0.66,-2.1
CCCNC(=O)c1ccc(N2CCC3(CC2)CC(c2cccc(Br)c2)=NO3)c(N)c1,-2.6,0.4,-2.0,-3,.,0.67,2.3
CC(C)(C)C(=O)Nc1ccc(C(=O)Nc2cccc(Oc3ccc(C(=O)O)c(C(=O)O)c3)c2)cc1,0.3,-2.2,-1.5,2,.,0.68,-2.6
CCn1c(CSc2nc(C)cc(C)n2)nnc1SCC(=O)Nc1cccc2ccccc12,0.3,1.8,-0.8,10,-4%,0.68,3.8
COc1cc(OC)c(NC(=O)c2ccc(Br)o2)cc1Cl,-0.4,0.1,-6.5,-3,4%,0.73,-0.2
CC(C)NC(=O)CSc1ncccc1-c1nc2ccccc2[nH]1,-4.2,-1.2,-1.6,-8,.,0.69,-3.6
Cc1ccc(C)c(NC(=O)NNC(=O)c2ccc3ccccc3c2O)c1,-99,-0.6,1.6,5,2%,0.7,-2.4
Cc1cc(C(=O)COc2cccnc2[N+](=O)[O-])c(C)n1Cc1cccs1,4.3,0.5,1.4,4,5%,0.7,3.5
COc1cccc(N2CCN(S(=O)(=O)c3ccc4c(c3)NC(=O)CS4)CC2)c1,1.1,-0.3,-1.5,-7,.,0.67,0.5
Cc1ccc(NC(NC(=O)c2cccs2)C(Cl)(Cl)Cl)cc1 (stereo unspecified),0.6,1.1,1.8,14,-6%,0.71,-0.2
COc1cccc(CSc2nccn2C)c1,3.2,-0.3,1.4,-7,4%,0.67,2.5
CCC(C)Sc1nnc(CNS(=O)(=O)c2ccc(F)cc2)n1C (stereo unspecified),4.0,1.3,-11,3,.,0.72,-1.3
Cc1cc(C2=NNC(=NC3CCCCC3)SC2)c(C)n1-c1c(C)n(C)n(-c2ccccc2)c1=O,6.5,0.7,1.4,-1,-2%,0.66,0.2

# The list goes on.
SMILES,UCH37 inh,A1 inh,LANA-H2A inh,B2AR ag,Vif A3G,Ecoli growth,HNF4A DNA FP
CCN(CC)S(=O)(=O)c1cccc(C(=O)Nc2ccccc2C(=O)N2CCOCC2)c1,-0.4,0.2,14,-5,13%,0.72,-0.7
Cc1ccc(NC2=NC(c3ccc(O)cc3)n3c(nc(C)cc3=O)N2)cc1 (stereo unspecified),-0.4,-0.1,-2.9,-6,28%,0.68,0.5
COc1ccccc1-c1nnc(NC(=O)c2ccc(S(=O)(=O)N(C)CC3CCCO3)cc2)o1 (stereo unspecified),6.9,0.0,-4.2,6,-5%,0.7,-3.7
Cc1ccc(NC(=O)c2ccco2)c(NC(=O)c2cccs2)c1,-1.8,-0.1,0.0,-8,22%,0.69,0.0
COc1ccc(CNC(=O)C(=O)NCC(c2ccco2)N2CCOCC2)cc1 (stereo unspecified),2.9,0.6,-3.0,0,-3%,0.66,-2.5
COc1ccc(C(=O)N2CCN(c3ccc(NC(=O)c4cccs4)cc3)CC2)cc1,0.6,0.8,1.6,3,11%,0.66,0.9
COc1cccc(-n2c(N)cc(=O)nc2SCC(=O)N2CCN(c3ccccc3)CC2)c1,2.0,-0.5,1.0,5,1%,0.67,-1.6
CCOC(=O)CSc1nnc(COc2cccc(C)c2)o1,0.6,-1.1,-2.2,5,3%,0.69,1.1
Cc1ccc(S(=O)(=O)CCc2nc3ccccc3[nH]2)cc1,0.5,0.0,-2.0,-5,1%,0.65,0.2
CCC(C)Sc1ccc([C@H]2N[C@@](C)(C(=O)OC)[C@H]3C(=O)N(C)C(=O)[C@@H]23)cc1OC (stereo partly specified),1.1,0.3,-10,6,.,0.78,2.1
O=C(c1cccnc1)N1CCN(S(=O)(=O)c2ccc(S(=O)(=O)N3CCCC3)cc2)CC1,1.6,-0.7,-3.6,8,31%&-4%,0.62,-1.3
CCn1c(Cc2cccn2C)nnc1SCC(=O)c1ccc(C)cc1,-6.5,-1.6,0.8,7,7%,0.71,-1.1
CCN1CCN(CC(=O)Nc2ccc(Cl)c(S(=O)(=O)N(C)C)c2)CC1,0.1,0.2,2.0,5,-9%,0.72,-4.1
CSc1c(CC(=O)Nc2ccccc2C(F)(F)F)n(Cc2ccccc2)c2ccccc12,3.9,0.1,-4.8,4,2%,0.73,-1.7
Cc1nn(-c2ccccc2)c(Cl)c1C(=O)OCC(=O)NCCc1ccc(S(N)(=O)=O)cc1,4.0,.,.,17,2%,0.71,4.2
COCCNC(=O)/C(C#N)=C/c1ccc(C)o1,17,-0.2,2.2,0,-1%,0.68,0.8
COC(=O)Cn1c(O)c(N=NC(=O)c2ccc3c(c2)OCO3)c2ccccc21,7.6,-0.5,-3.0,-22,-13%,0.7,-0.8
S=c1sc(SCCOc2ccccc2)nn1-c1ccccc1,0.7,?,3.1,2,-5%,0.71,2.7
COc1ccc(NC(=O)CCc2nc(-c3ccc(C)cc3)no2)c(OC)c1,5.8,0.4,-4.1,1,15%,0.78,0.6
Cc1ccc(NC(=O)CNc2ccccc2CN(C)C2CCCCC2)cc1,5.7,-0.6,3.3,17,?,0.68,-1.2
CN(c1ccc(C(=O)NC2CCCC2)cc1)S(=O)(=O)c1ccccc1,-0.1,-0.9,6.1,-9,.,0.69,0.4
COC(=O)CSC1=C(C#N)C(=O)NC2(CCCCC2)S1,6.1,-0.3,4.7,-4,.,0.68,2.3
CCc1ccccc1NC(=O)CSC1=C(C#N)C(c2ccc3c(c2)OCO3)C2=C(CCCC2=O)N1 (stereo unspecified),4.8,-0.2,-6.0,-4,11%&9%,0.71,-1.6
O=C(NC1=NCCS1)NC12CC3CC(CC(C3)C1)C2,4.4,0.8,-2.3,-11,26%,0.71,-3.9
COc1ccc(S(=O)(=O)N2CCC(C(=O)NCCc3ccccc3)CC2)cc1,4.1,-0.6,4.5,-8,.,0.63,1.5

# Single entries from the results shown:
# COc1ccc(CNC(=O)C(=O)NCC(c2ccco2)N2CCOCC2)cc1 (stereo unspecified) | Vif A3G: -3%
# Cc1ccc(NC2=NC(c3ccc(O)cc3)n3c(nc(C)cc3=O)N2)cc1 (stereo unspecified) | A1 inh: -0.1

# Returning to the listing, starting five compounds before the break.
SMILES,UCH37 inh,A1 inh,LANA-H2A inh,B2AR ag,Vif A3G,Ecoli growth,HNF4A DNA FP
CN(c1ccc(C(=O)NC2CCCC2)cc1)S(=O)(=O)c1ccccc1,-0.1,-0.9,6.1,-9,.,0.69,0.4
COC(=O)CSC1=C(C#N)C(=O)NC2(CCCCC2)S1,6.1,-0.3,4.7,-4,.,0.68,2.3
CCc1ccccc1NC(=O)CSC1=C(C#N)C(c2ccc3c(c2)OCO3)C2=C(CCCC2=O)N1 (stereo unspecified),4.8,-0.2,-6.0,-4,11%&9%,0.71,-1.6
O=C(NC1=NCCS1)NC12CC3CC(CC(C3)C1)C2,4.4,0.8,-2.3,-11,26%,0.71,-3.9
COc1ccc(S(=O)(=O)N2CCC(C(=O)NCCc3ccccc3)CC2)cc1,4.1,-0.6,4.5,-8,.,0.63,1.5
CC(C)(CNC(=O)c1cccs1)CNC(=O)c1cccs1,-3.7,0.7,0.8,-11,0%,0.66,-4.2
O=C(O)/C(=C\c1ccccc1)c1ccc2ccccc2c1,1.8,0.6,3.9,14,.,0.65,0.8
CC(=O)c1c(C)[nH]c(C(=O)N2CCc3ccccc3C2)c1C,0.9,-0.4,4.4,-20,-1%,0.71,-0.9
COc1cccc(-c2cc(C(=O)NCCN3CCOCC3)no2)c1,-0.2,-0.1,-3.1,12,-8%,0.67,-1.6
O=C(NN=Cc1c(O)ccc2ccccc12)c1ccncc1,.,.,.,-6,0%,.,143
COc1ccc(CCNS(=O)(=O)c2ccc(Br)cc2)cc1OC,1.7,0.4,4.1,10,7%,0.65,1.7
CN1CCN(S(=O)(=O)c2ccc3c(c2)CC(=O)N3C)CC1,-1.6,1.7,9.7,10,5%,0.69,2.2
Cc1ccc(NS(=O)(=O)N2CCOCC2)c(C)c1,3.2,-0.3,-2.0,3,.,0.67,3.4
COC(=O)c1sc(-c2ccccc2)cc1NC(=O)c1ccc(F)cc1,-73,-0.1,-0.9,0,.,0.73,3.9
CC(C)Cn1c(-c2cccc(S(=O)(=O)N3CCOCC3)c2)n[nH]c1=S,0.5,0.9,-2.7,-7,.,0.7,0.6
CC(C)(C)C(=O)COc1ccccc1[N+](=O)[O-],2.6,0.9,-5.9,-2,0%,0.58,2.3
Nc1nc(CN2CCN(c3ccc(F)cc3)CC2)nc(N2CCCc3ccccc32)n1,1.8,-0.6,-4.1,-1,0%,0.71,-0.1
CNC(=O)COC(=O)c1cc(-c2ccco2)nc2ccccc12,-234,-1.0,4.5,-5,.,0.7,-19
COc1ccccc1OCc1nc(C#N)c(NCc2ccco2)o1,0.9,-0.3,-3.0,-1,24%,0.7,2.3
CC1CC(C)CN(C(=S)Nc2ccc3nc4n(c(=O)c3c2)CCCCC4)C1 (stereo unspecified),1.5,-0.6,-0.3,-15,?,0.7,-3.4
Nc1ccc(N2CCCCC2)cc1N1CCCCC1,3.2,-0.4,-1.9,3,?,0.67,-3.5
O=C(NCc1ccccc1)C1CCCN(S(=O)(=O)c2cccs2)C1 (stereo unspecified),-0.8,0.3,-9.1,-5,5%,0.73,2.6
Cc1ccc(C)c(NC(=O)CSc2nncn2C)c1,3.3,0.4,1.4,7,-4%,0.67,-4.1
COc1ccc(Cl)cc1CNCCCSc1ncccn1,1.8,1.5,0.9,-1,.,0.6,-0.3
O=C(CCc1ccccc1)Nc1nc2n(n1)C(c1ccc(Cl)cc1)CC(=O)N2 (stereo unspecified),-4.6,1.0,6.0,-5,-4%,0.78,0.1
O=C(CN(C(=O)c1cccc([N+](=O)[O-])c1)C1CCCCC1)Nc1ccc(Cl)c([N+](=O)[O-])c1,-0.7,-0.1,6.9,20,15%,0.74,3.4
